Assay outcomes deposited in PubChem BioAssay by several laboratories.
Mtb hypoxia inh = PubChem AID 1159583. M. tuberculosis hypoxia-regulated fluorescent reporter, fluorescence. fluorescence inhibition, % (concentration not given with the values). actives 0.1% (n = 300,000);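 active = 35 to 45% if threefold the growth effect, above 45% if 1.5-fold the growth effect; inactive = the rest, general growth blockers included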;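 note: wells of about 50 µL received 100 nL stock; 0% = vehicle wells and 100% = reference inhibitor wells; whole bacteria with a GFP reporter of the hypoxia response; strong numbers were not always called active; many hits fall short of the cut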
PrP 5UTR inh = inhibition of PrP 5' UTR reporter expression. cell-based PrP 5' UTR mRNA reporter, plate reader. inhibition, % (test concentration not listed). actives 0.35% (n = 340,000). AID 488862, 2010;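 active = every replicate at 50% or more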;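 note: 0 = median of the neutral control wells; tested in H4 reporter cells; numbers are from one replicate; inactives centre near -14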
Bead autofluor = counter-screen for toxin protease inhibitors: compound fluorescence | compound autofluorescence counterscreen, microsphere flow cytometry; hits give high values | fluorescence intensity (test concentration not listed) | actives 3.1% (n = 360,000);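 active = at least 3 SD above the mean of all compounds, about 16000 in these data; inconclusive = too few beads counted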;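 note: 100 nL of 1 mM stock went into each well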
Sa ugtP lethal = growth inhibition of ugtP-null S. aureus, primary screen, RN4220 ugtP deletion, OD600 | 16 h; some inactives read as strong as hits | actives 0.54% (n = 330,000) | growth inhibition, % (test concentration not listed);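 active = z-score under -3 and OD600 up to 0.15 on both plates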;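 note: plate controls were untreated wells for no effect and antibiotic for full effect; wells of about 80 µL received 100 nL stock; the first replicate is given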
BJeLR viability = MLPCN primary cell-based screen for lethality selective to Ras in HRASV12 cells; BJeLR (HRASV12) viability, CellTiter-Glo ATP luminescence, 48 h; reference of the scale not given here; inhibition, % (concentration not given with the values); actives 0.17% (n = 300,000);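 active = replicate mean above 50%; inconclusive = above 50% but judged a plate artefact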;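 note: 50 nL library stock added to about 25 µL; numbers are from one replicate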
RN4220 kill = growth inhibition of S. aureus RN4220, primary screen, OD600. actives 0.33% (n = 330,000). 16 h. AID 1259311, 2017. inhibition, % (no concentration beside the values);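 active = z-score of -3 or lower and OD600 up to 0.18 on both plates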;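 note: plate controls were untreated cells for no effect and reference antibiotic for full effect; stock transfer was 100 nL into about 80 µL; one replicate is shown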
Mtb hypoxia inh growth = further read-out of Mtb hypoxia inh, marked with its call; growth inhibition, %; measured here: M. tuberculosis growth (absorbance);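 0% = vehicle and 100% = reference antibiotic; read after six days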
The depositor's hits bear a star; ? = inconclusive; / = no result given; & = joins results of further samples.

Preview:
SMILES | Mtb hypoxia inh | Mtb hypoxia inh growth | PrP 5UTR inh | Bead autofluor | Sa ugtP lethal | BJeLR viability | RN4220 kill
CCCCC(=O)Nc1nn(C)c2nc3c(C)cccc3cc12 | 11 | 12 | -16 | 2730 | 6 | -6 | 3.2
Cc1ccc(C(=O)ON=Cc2ccc(N(C)C)cc2)cc1 | 12 | 12 | / | / | 7 | / | 8.8
CS(=O)(=O)Nc1cccc(-c2cn3c(n2)SCC3)c1 | 2 | -10 | -2 | 4176 | 0 | 0 | 4.1
CC[C@]12C(=O)N(C)CC(C3C(=O)N(Cc4ccccc4)C(=O)C31)N2C(=O)c1ccc(F)cc1 (some centres not stated) | 13 | 13 | / | / | 2 | / | 7.0
O=C1CSC(c2ccccc2[N+](=O)[O-])N1c1ccc(O)cc1 (configuration not stated) | 14 | 8 | -7 | 4344 | 7 | 0 | 4.2
O=C(CCCC(=O)N(CC(=O)NC1CCCCC1)CC1CCCO1)Nc1ccccn1 (configuration not stated) | -1 | 7 | -16 | 2488 | 7 | -3 | 18

The listing, repeating the preview:
SMILES | Mtb hypoxia inh | Mtb hypoxia inh growth | PrP 5UTR inh | Bead autofluor | Sa ugtP lethal | BJeLR viability | RN4220 kill
CCCCC(=O)Nc1nn(C)c2nc3c(C)cccc3cc12 | 11 | 12 | -16 | 2730 | 6 | -6 | 3.2
Cc1ccc(C(=O)ON=Cc2ccc(N(C)C)cc2)cc1 | 12 | 12 | / | / | 7 | / | 8.8
CS(=O)(=O)Nc1cccc(-c2cn3c(n2)SCC3)c1 | 2 | -10 | -2 | 4176 | 0 | 0 | 4.1
CC[C@]12C(=O)N(C)CC(C3C(=O)N(Cc4ccccc4)C(=O)C31)N2C(=O)c1ccc(F)cc1 (some centres not stated) | 13 | 13 | / | / | 2 | / | 7.0
O=C1CSC(c2ccccc2[N+](=O)[O-])N1c1ccc(O)cc1 (configuration not stated) | 14 | 8 | -7 | 4344 | 7 | 0 | 4.2
O=C(CCCC(=O)N(CC(=O)NC1CCCCC1)CC1CCCO1)Nc1ccccn1 (configuration not stated) | -1 | 7 | -16 | 2488 | 7 | -3 | 18
O=C1c2ccccc2C(O)(c2ccccc2)N1C1CC1 (configuration not stated) | 13 | -2 | / | 4038 | 0 | 11 | 4.2
CC1CCCC(C)N1C(=O)COC(=O)COc1ccccc1C#N (configuration not stated) | -6 | 3 | -43 | 3678 | 5 | / | 6.3
O=C(N1CCN(c2ccccn2)CC1)N1c2ccccc2Sc2ccccc21 | 6 | 19 | 42 | 9673 | -5 | 34 | -9.6
Cc1ccc(/C=N\Nc2nc3ccc(Cl)cc3[nH]2)o1 | / | / | -98 | 4146 | / | -9 | /
CN(C)c1ccc(NC(=S)NC(=O)/C=C/c2ccco2)cc1 | / | / | -33 | 2182 | / | -3 | /
COC(=O)c1cccc(NC(=O)CSc2nnc(COc3ccccc3)n2C)c1 | -3 | 4 | 0 | 3255 | -4 | -3 | 2.9
CC(C)NC(=O)c1ccc2c(c1)N(CC(=O)N1CCOCC1)C(=O)C(C)(C)O2 | 7 | 14 | -11 | 22372* | 5 | -13 | 6.0
COc1ccc(CCNC(=O)C(=O)NCc2ccccc2C)cc1OC | 12 | 3 | -16 | 3883 | 5 | 1 | 7.1
CCN1C(=NCc2cccc(Cl)c2)N[C@@H](c2cccc(F)c2)C(C(=O)OC)=C1C | / | / | -28 | 4223 | / | 11 | /
CC(=O)NC(C)c1nc2ccccc2n1Cc1ccccc1F (configuration not stated) | 4 | 8 | -2 | 4003 | 3 | -2 | -3.0
O=c1c2c3c(sc2ncn1/N=C/c1ccncc1)CCCC3 | / | / | -36 | 3816 | / | -1 | /
CC(C)N(Cc1ccccc1)C(=S)NC1CCCCC1 | 16 | 11 | -7 | 3088 | 11 | 2 | 6.4
O=C(Nc1nnc(-c2ccc3c(c2)CCCC3)o1)c1ccc(Cl)cc1Cl | 8 | 4 | -15 | 5687 | 100* | 10 | 99*
CC1COC(=O)C(Cc2ccc(F)cc2)CC=CCC(CC(=O)NCCO)C(=O)N1 (configuration not stated) | 1&7&3&3&-5 | 0&15&13&-4&7 | / | / | 1&-1&-2&-9&-4 | / | 2.6&4.1&-0.9&5.5&0.9
O=C(CSc1nc2ncc(Cl)cc2[nH]1)NCCc1ccc(F)cc1 | 2 | 3 | -25 | 4320 | 4 | -1 | 6.0
Cn1cccc1/C=N/NC(=O)c1ccn[nH]1 | / | / | -33 | 2357 | / | 9 | /
O=C(CN1CCc2cc3c(cc2C1)OCCCO3)Nc1ccccc1 | / | / | -23 | 5796 | 2 | 5 | -4.7
CCSc1nnc(NC(=O)[C@H](C)N2C(=O)C3CC=CCC3C2=O)s1 (some centres not stated) | 30* | 50* | -22 | 4739 | 5 | / | 0.0
CCCn1c(O)c(N=Nc2ccc3ccccc3n2)c2ccccc21 | 17 | 1 | -68 | 9515 | 20 | -2 | -3.4
CCN1C(=O)CC(NNC(=O)c2ccc(Cl)cc2)C1=O (configuration not stated) | 12 | 10 | -19 | ? | -2 | 2 | 4.5
CC(=O)Nc1ccc(NC(=O)C(OC(=O)c2ccccc2)C(OC(=O)c2ccccc2)C(=O)O)cc1 (configuration not stated) | -1 | -6 | -7 | 3163 | 14 | -5 | 6.6
C=CCOc1ccc(/C=N/NC(=O)C(C)Sc2ccccn2)cc1OC (configuration not stated) | / | / | -4 | 2427 | / | 3 | /
CCC(=O)Nc1nnc(S(=O)(=O)N2CCCCCC2)s1 | 6 | 6 | -10 | 4679 | 9 | -3 | 0.7
COC(=O)c1cc(C(=O)c2ccc(C(C)(C)C)cc2)c[nH]1 | 10 | 5 | -40 | 4537 | 3 | 9 | 3.8
CCOc1ccc(C(=O)NNC(=O)CNC(=O)c2ccc(C)s2)cc1OC | 12 | 8 | / | 5584 | 1 | / | -1.1
O=C(/C=C/c1ccc(Cl)cc1Cl)NC(=S)Nc1ccc(CN2CCOCC2)cc1 | 7 | 13 | -12 | 7142 | -1 | 5 | 5.3
O=C(COc1cccnc1[N+](=O)[O-])N1CCN(S(=O)(=O)c2ccccc2)CC1 | / | / | -12 | 2099 | 0 | -2 | 1.2
COc1ccc(NC(=S)NCCN2CCOCC2)c(OC)c1 | / | / | -1 | 4835 | 0 | 3 | 0.4
C1CCCC(NC2=NCCO2)CCC1 | 10 | 10 | -15 | 4886 | 4 | -10 | 1.4
Cc1ccc(-n2nnc(-c3cc4ccccc4n3C)n2)cc1 | 3 | -2 | -44 | 3036 | 7 | -8 | 7.4

Given with two lines to a compound: entries from further up.
Values run as follows: Mtb hypoxia inh	Mtb hypoxia inh growth	PrP 5UTR inh	Bead autofluor	Sa ugtP lethal	BJeLR viability	RN4220 kill
- O=C(N1CCN(c2ccccn2)CC1)N1c2ccccc2Sc2ccccc21
    6	19	42	9673	-5	34	-9.6
- Cc1ccc(/C=N\Nc2nc3ccc(Cl)cc3[nH]2)o1
    /	/	-98	4146	/	-9	/

(list continues)
SMILES | Mtb hypoxia inh | Mtb hypoxia inh growth | PrP 5UTR inh | Bead autofluor | Sa ugtP lethal | BJeLR viability | RN4220 kill
CC1=NOC2(C1)/C(=N/O)CCC/C2=N\O (configuration not stated) | / | / | -21 | 10728 | / | -10 | /
O=C(Nc1nnc(C2=COCCO2)o1)c1cccc(C(F)(F)F)c1 | 2 | 9 | -10 | 5551 | 82 | 16 | 95*
O=C(COC(=O)c1ccccc1Br)Nc1cccnc1Cl | 4 | 1 | 2 | 5160 | 3 | / | 3.1
O=C(/C=C/c1cccs1)NC1CCS(=O)(=O)C1 (configuration not stated) | 6 | -4 | / | 4745 | 1 | 9 | 2.7
CCN1CCCC1CNC(=O)c1cc2c(C)nc3ccccc3c2o1 (configuration not stated) | 6 | 3 | 2 | 17361* | 1 | -12 | -0.6
Cc1cccc(NC(=O)c2cc(=O)c3ccccc3o2)n1 | 13 | 2 | -18 | ? | -1 | -15 | 4.7
O=C(CCNC(=O)c1ccc(Cl)cc1)Nc1cccc(S(=O)(=O)N2CCCCCC2)c1 | 4 | 3 | -5 | ? | -3 | -1 | 0.8
CN(C)C1C(=O)C(C(N)=O)=C(O)C2(O)C(=O)C3=C(O)c4c(O)cccc4C(C)(O)C3C(O)C12 (configuration not stated) | / | / | -4 | 4330 | 100* | 3 | 100*
CCOC(=O)C(NC(=O)CCl)(Nc1ccc(C(O)(C(=O)OCC)C(F)(F)F)cc1)C(F)(F)F (configuration not stated) | 10 | 3 | -35 | 2512 | 6 | -7 | 43
CCOC(=O)c1c(S(=O)(=O)N2CCN(C3CCCCC3)CC2)c(C)n(C)c1C | 11 | 6 | -1 | 5200 | 1 | 9 | -0.7
Cc1ccccc1CC1(CO)CCCN(C(=O)CCC(=O)c2ccccc2)C1 (configuration not stated) | -1 | -3 | -24 | 2627 | 4 | 5 | -1.9
O=Cc1cn(CC(=O)NCC2CCCO2)c2ccccc12 (configuration not stated) | / | / | -5 | 4572 | 1 | 1 | 3.1
CCN1C(=NCc2cc(OC)c(OC)c(OC)c2)NC(c2cccc(C(F)(F)F)c2)C(C(=O)OC)=C1C (configuration not stated) | 13 | 12 | / | / | 2 | / | 2.5
O=C(Cn1ccc2ccccc2c1=O)NCCC(=O)Nc1ccc(F)cc1F | -4 | 4 | -7 | 6120 | 2 | 0 | 1.0
COC(=O)c1cccc(NC(=O)C(C)N2C(=O)c3ccccc3C2=O)c1 (configuration not stated) | 17 | 12 | -7 | 10482 | 4 | 3 | 4.1
COc1ccc(O)c(-c2[nH]ncc2C(=O)c2ccccc2)c1 | 6 | 2 | -11 | 2411 | -2 | 5 | 5.9
CCc1ccc(NC(=O)c2cc(C)on2)cc1 | 6 | -2 | -89 | 8367 | 5 | 6 | 2.2
CCc1cccc(OC2OC(CO)C(O)C(O)C2NC(C)=O)c1 (configuration not stated) | 5 | 10 | -8 | 3269 | 2 | -19 | 12
COc1cccc(OCC(O)CN2CC(C)CC(C)C2)c1 (configuration not stated) | / | / | -14 | 2528 | 6 | 8 | -4.4
CCN(CC(=O)Nc1c(F)cccc1F)C(=O)Cc1n[nH]c(=O)c2ccccc12 | 0 | 9 | 0 | ? | 4 | -10 | 0.1
O=C(CSc1ccc(F)cc1)NC12CC3CC(CC(C3)C1)C2 | -11 | -10 | -8 | 3192 | 2 | 8 | -0.5
Cc1ccc(S(=O)(=O)N2CCN(C(=O)CN3C(=O)NC4(CCCC4)C3=O)CC2)c(C)c1 | 14 | 3 | -28 | 6565 | 3 | 10 | 2.5
CCCCC(=O)N(CCOC)c1nnc(-c2ccccc2C)s1 | 6 | 5 | -6 | 2585 | 3 | 4 | 4.4
CN1CCN(C(=O)C2=CC(c3csc4ccccc34)CC(OCc3ccc(CO)cc3)O2)CC1 (configuration not stated) | -11 | -17 | / | / | -2 | / | 3.0
COc1ccc2[nH]c(C)c(CCNC(=S)Nc3cccc(C)c3)c2c1 | -5 | -7 | -12 | 4317 | -9 | 5 | 7.0
CS(=O)(=O)N1CCC(C(=O)Nc2ccc(Cl)cc2)CC1 | 3 | 7 | -29 | 3727 | 5 | -3 | 6.6
O=C(C[C@H]1C/C=C\CC[C@@H](Cc2ccc(F)cc2)C(=O)O[C@H](c2ccccc2)CNC1=O)N[C@H](CO)Cc1ccccc1 | 0 | 6 | -12 | 2870 | 0 | / | 2.4
COc1ccccc1CNc1ncc(-c2ccccc2)n1C | -9 | 5 | -24 | 4400 | 8 | -2 | -0.6
COc1cc(C(=O)NNC(=O)COc2cccc(F)c2)ccc1OCC(=O)N1CCOCC1 | 9 | -1 | -8 | 2932 | 4 | / | 3.6
COc1ccc2cc(CN(CC3CCCO3)S(=O)(=O)c3ccccc3)c(=O)[nH]c2c1 (configuration not stated) | -5 | -11 | -7 | 7347 | -1 | -11 | 5.8
Cc1ccc(C(c2nnnn2CS(=O)(=O)c2ccc(C)cc2)N2CCC(C)CC2)cc1 (configuration not stated) | -1 | 6 | -25 | 4358 | -3 | -7 | 0.4
CC1Cc2ccccc2C(CCc2ccccc2)=N1 (configuration not stated) | 7 | 5 | -15 | 4296 | 6 | -4 | 5.3
CS(=O)(=O)N1CCC(C(=O)O)CC1 | 4 | 3 | -17 | 6685 | 10 | -17 | 6.0
Cc1cc(C)cc(OCC(=O)NCC2CCCO2)c1 (configuration not stated) | 1 | -10 | -4 | 6063 | 2 | 6 | -2.7
CCn1nc(C)c(CNC(=O)c2ccc(OC3CCN(Cc4ccccn4)CC3)cc2)c1C | 9 | 6 | -2 | 5282 | -5 | 18 | 3.8
